Screening results (PubChem BioAssay)
TRPV1 potentiator: human TRPV1 potentiation; TRPV1-expressing cells, Fluo-8 calcium influx, capsaicin EC20 potentiation; host cell line not named in the record; control for the full effect not named in the record; actives 0.02% (n = 320,000); potentiation, % at 8.33 µM; Q8NER1; active means potentiation above 80%; inconclusive means 30% to 80%; inactive means below 30%; further: 0% is about no effect
Target sequence (Q8NER1 whole entry, looked up): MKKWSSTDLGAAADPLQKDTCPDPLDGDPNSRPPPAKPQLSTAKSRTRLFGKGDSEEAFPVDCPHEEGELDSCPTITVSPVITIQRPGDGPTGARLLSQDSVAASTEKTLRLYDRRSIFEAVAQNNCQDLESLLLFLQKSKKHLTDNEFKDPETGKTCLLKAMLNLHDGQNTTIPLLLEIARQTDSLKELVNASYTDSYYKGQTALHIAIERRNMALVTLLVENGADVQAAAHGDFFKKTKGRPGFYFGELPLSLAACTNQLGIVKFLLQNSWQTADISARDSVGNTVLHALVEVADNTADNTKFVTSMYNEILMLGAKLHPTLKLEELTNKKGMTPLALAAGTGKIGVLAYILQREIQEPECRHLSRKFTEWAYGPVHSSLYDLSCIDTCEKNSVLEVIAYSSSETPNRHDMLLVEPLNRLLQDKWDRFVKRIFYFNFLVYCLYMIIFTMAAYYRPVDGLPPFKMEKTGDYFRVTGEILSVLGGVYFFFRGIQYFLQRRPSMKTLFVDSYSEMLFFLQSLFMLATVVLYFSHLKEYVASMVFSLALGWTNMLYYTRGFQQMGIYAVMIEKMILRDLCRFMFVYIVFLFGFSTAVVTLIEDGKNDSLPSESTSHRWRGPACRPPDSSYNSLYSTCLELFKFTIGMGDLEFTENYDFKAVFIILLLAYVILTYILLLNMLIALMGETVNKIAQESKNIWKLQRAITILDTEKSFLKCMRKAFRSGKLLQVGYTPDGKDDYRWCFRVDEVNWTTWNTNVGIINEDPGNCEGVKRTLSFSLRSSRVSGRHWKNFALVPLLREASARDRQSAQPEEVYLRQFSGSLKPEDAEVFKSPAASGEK
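Cells expressing TRPV1 were dye-loaded with Fluo-8 and read kinetically: 10 s baseline, 3 min after compound (agonist portion), then 2 min after EC20 capsaicin (allosteric enhancer portion). Calcium-bound dye fluorescence at 480/520 nm.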
gsp antagonist: antagonizes gsp, the McCune-Albright syndrome mutation. Potency, µM (doses to about 76.9 µM), for the others: at the top dose activity change, negative = inhibition, most hits filed as inhibitors. actives 0.4% (n = 340,000). AID 624288. gsp-mutant cells, cAMP HTRF, 30 min; control for the full effect not named in the record; active = falling curve of any shape with a large fitted effect; inconclusive = falling curve, mostly with a smaller effect; inactive = flat or rising curve; cell line not stated here;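 further: intracellular cAMP measured with PDE inhibitor Ro 20-1724 present during compound exposure; potency means the concentration at half of the fitted maximal effect; on the % scale 0 is the no-effect control and ±100 the full control effect; nearly all actives have a fitted effect of over 65% in size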
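HTRF cAMP read-out (cAMP-d2 plus anti-cAMP antibody-K in lysis buffer, 30 min RT). Before lysis, cells are exposed to compounds with […] for 30 min at 37C in DPBS containing Ca/Mg, BSA and Tween 20.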
D2 PAM: potentiates the human D2 dopamine receptor allosterically | P14416 | DiscoveRx D2 beta-arrestin cells, luminescence, 90 min; 100% = 57 uM dopamine signal | potentiation, % (concentration not given with the values) | actives 0.23% (n = 360,000) | AID 624464; active = potentiation of 50% or more; inconclusive = 30% to 50%; inactive = 30% or less;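 further: compound concentration not given in the record; tested on top of an EC20 dose of dopamine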
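PathHunter D2 cells, attached overnight at 37 deg C, received compound in DMSO plus dopamine at EC20 (50 nM final) for 90 min at 37 deg C. Beta-arrestin recruitment was read as luminescence after 1 h with detection reagent at ambient temperature.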
ClpP mod: qHTS Assay for Activators of ClpP; AID 651965, 2013; ATP-dependent Clp protease proteolytic subunit (Bacillus subtilis (strain 168)), P80244; Potency, µM (doses to about 57.5 µM), inactives show top-dose activity change, negative = active; actives 1.9% (n = 340,000); purified B. subtilis ClpP, FRET peptide cleavage, 20 min; active = well fitted falling curve with a large enough effect; inconclusive = small, poorly fitted or top-dose-only effect; inactive = no such curve, though single readings can be large or run the other way; further: potency means the concentration at half of the fitted maximal effect; the source files actives as falling curves though it sought activators and does not explain the sign; nearly all actives have a fitted effect of over 65% in size; many hits overshoot -100%
Target sequence (P80244 whole entry, looked up): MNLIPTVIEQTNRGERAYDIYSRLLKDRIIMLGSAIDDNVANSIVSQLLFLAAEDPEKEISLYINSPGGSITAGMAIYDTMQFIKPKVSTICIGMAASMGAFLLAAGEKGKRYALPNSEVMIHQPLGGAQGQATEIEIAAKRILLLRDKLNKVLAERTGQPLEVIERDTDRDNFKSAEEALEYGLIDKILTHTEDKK
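ClpP 10 microg/mL final, pH 8 Tris/KCl buffer with BSA, glycerol, Tween-20; compound pinned in; FRET-FV substrate; RT 20 min; Ex320/Em430; ΔFRET vs ADEP 5.8 microM, DMSO, no enzyme.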
Menin-MLL FL inh: menin-MLL binding inhibition, fluorescein peptide | FP activity change, % at 61.4 µM | AID 1766 | Fluorescence polarization, fluorescein-MLL peptide displacement from menin | 290,000 tested, under 10 active; inconclusive = falling polarisation curve, or a change in total fluorescence; inactive = total fluorescence flat and polarisation flat or rising; no compound was filed as active; the % refers to the polarisation; negative = inhibition;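 further: % of control where 0% means no effect; inhibitors lower the polarisation; unlabelled MLL peptide was the positive control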
Sfp inh: blocks B. subtilis Sfp PPTase activity. Potency, µM, inactives show max response, negative = inhibition, hits mostly inhibitors. AID 1490. Q9F4F7. Biochemical Sfp PPTase activity, qHTS. actives 3.5% (n = 310,000); active means well fitted inhibition curve with a large enough effect; inconclusive means small, poorly fitted or top-dose-only effect, or another doubt; inactive means no such curve, though single readings can be large or run the other way;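 further: the enzyme is Sfp with the accession as filed and its product quenches rhodamine fluorescence; potency means the concentration at half of the fitted maximal effect; 0% = enzyme reaction without inhibitor and -100% = no enzyme wells; top concentration of the series not given in the record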
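With Hepes-Na pH 7.6 buffer containing 10 mM MgCl2, Sfp (15 nM) modified BHQ-2-YbbR (12.5 uM) using rhodamine-CoA (5 uM). Two reads 30 minutes apart at 525/598 nm yielded each well's rate.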
gsp agonist: gsp mutant agonism; gsp mutant cells, cAMP HTRF, 30 min; control for the full effect not named in the record; Potency, µM (doses to about 76.9 µM), for the others: at the highest dose activation (cAMP increase), hits mostly activators; actives 0.13% (n = 340,000); active = well fitted activation curve with a large enough effect; inconclusive = small, poorly fitted or top-dose-only effect, or another doubt; inactive = no such curve, though single readings can be large or run the other way; cell line not stated here;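 further: phosphodiesterase inhibitor Ro 20-1724 added with compounds to block cAMP breakdown; potency means the concentration at half of the fitted maximal effect; nearly all actives have a fitted effect of over 60% in size; about a fifth of the inactives were tested at one dose only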
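Cells stably selected in G418 were plated at 2000/well, grown 16-24 hr, then given compounds in DMSO with the PDE inhibitor […] (300 uM solution added) for 30 min at 37C; cAMP was read by HTRF.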
Starred values were filed as active, the others as inactive; ? = inconclusive; / = no result given; & = joins results of further samples; [ ] = remark or other dose.

The first 4 records (preview)
SMILES	TRPV1 potentiator	gsp antagonist	D2 PAM	ClpP mod	Menin-MLL FL inh	Sfp inh	gsp agonist
CSc1ncccc1C(=O)N1CCCC(N2CCN(c3ccccc3F)CC2)C1 (stereo not given)	-5	-9%	-44	-2.4%	/	14%	22%
Cc1ccc(-c2cnc3n2CCCCC3)cc1	-8	-13%	22	0.1%	-7.7	30%[activator]	7%
CCN(CC)c1ccc(NC(=O)c2c(C)noc2C)cc1	-7	-17%	-1	-0.9%	/	-4%	?
O=C(Nc1ccc(N2CCOCC2)cc1)c1ccc(Br)o1	-13	3%	-2	/	/	10%	-21%

Main list, previewed entries included:
SMILES	TRPV1 potentiator	gsp antagonist	D2 PAM	ClpP mod	Menin-MLL FL inh	Sfp inh	gsp agonist
CSc1ncccc1C(=O)N1CCCC(N2CCN(c3ccccc3F)CC2)C1 (stereo not given)	-5	-9%	-44	-2.4%	/	14%	22%
Cc1ccc(-c2cnc3n2CCCCC3)cc1	-8	-13%	22	0.1%	-7.7	30%[activator]	7%
CCN(CC)c1ccc(NC(=O)c2c(C)noc2C)cc1	-7	-17%	-1	-0.9%	/	-4%	?
O=C(Nc1ccc(N2CCOCC2)cc1)c1ccc(Br)o1	-13	3%	-2	/	/	10%	-21%
CCn1c2ccccc2n2c(=O)c(=O)n(CC(=O)N3CCN(c4ccccc4OC)CC3)nc12	4	/	/	/	-0.6	13%	/
COc1ccccc1CCC(=O)OCC(=O)Nc1ccc(C(N)=O)cc1	2	12%	4	/	-1.7	13%	0%[15.4 µM]
COc1ccc(N2CC(O)=C(c3nc4ccccc4s3)C2=N)c(OC)c1	15	-1%	-1	-9.9%	2.8	2%	-24%
CSc1ncccc1C(=O)OCC(=O)Nc1ccc(N2CCOCC2)cc1	/	-3%	-5	/	/	/	-3%
CCCCn1c(N)c(N(CCOC)C(=O)c2ccc(Br)s2)c(=O)[nH]c1=O	5	9%	2	/	/	/	7%[15.4 µM]
CCOC(=O)c1ccccc1NC(=O)c1cncc(Br)c1	-17	4%	-5	-0.2%	1.1	14%	21%[15.4 µM]

Reprinted from the part before: 2 compounds, then new ones.
SMILES	TRPV1 potentiator	gsp antagonist	D2 PAM	ClpP mod	Menin-MLL FL inh	Sfp inh	gsp agonist
CCCCn1c(N)c(N(CCOC)C(=O)c2ccc(Br)s2)c(=O)[nH]c1=O	5	9%	2	/	/	/	7%[15.4 µM]
CCOC(=O)c1ccccc1NC(=O)c1cncc(Br)c1	-17	4%	-5	-0.2%	1.1	14%	21%[15.4 µM]
CCOc1ccccc1OCCOc1ccccc1OC(C)C	-2	-3%[15.4 µM]	-4	-1.1%	3.0	16%	-3%
CCOc1ccc(C(=O)NC(=S)N2CCN(c3ccc(C(F)(F)F)cc3[N+](=O)[O-])CC2)cc1	3	?	-13	-18%	1.6	1%	15%
CN(C)S(=O)(=O)c1cc(NC(=O)COC(=O)C2COc3ccccc3O2)ccc1Cl (stereo not given)	2	-9%	-31	-0.1%	-0.2	14%	-2%
CC(=O)/C(=C/N(C)C)C(=O)Nc1ccc(Cl)cc1Cl	-5	?	-7	/	4.6	-7%	-7%
O=S(=O)(c1ccccc1F)N1CCN(c2nc3ccccc3s2)CC1	14	-5%	0	/	1.7	14%	-69%[inhibitor]
Cc1cc(C)c(NC(=O)Cc2ccc(-n3cccc3)cc2)c(C)c1	21	17%	6	-0.6%	3.1	?	12%
N#Cc1c(N)n[nH]c1CCCN	18	5%	2	-2.0%	-0.1	10%	8%
O=C(NCC1(c2ccccc2)CCCC1)c1ccc(Br)o1	-16	-4%	-18	1.7%	-3.1	0%	-29%
CCOc1ccc(NC(=S)NCc2nc3ccccc3[nH]2)cc1	0	10%	-17	0.6%	0.5	-9%	-36%[inhibitor]
O=C(NCCN1CCOCC1)c1cc(-c2ccc(Br)cc2)on1	-7	9%	-8	0.5%	1.1	-1%	-47%[inhibitor]
CCc1nc2sc3ccccc3c(=O)c2c(=O)n1CCOC	4	7%	-4	-3.2%	0.8	12%	-3%
Cc1ccc(Cn2nc(C)c3cc(C(=O)OCC(N)=O)sc32)cc1	-23	1%	5	?	-0.1	17%	-1%
CC1=C(C(=O)OC(C)C)C(c2cccs2)N2C(=O)C(C)SC2=N1 (stereo not given)	-16	-12%	-19	-0.2%	3.9	15%	-1%
O=C(CN1CCN(Cc2ccccc2)CC1)N1CCCc2c1c(=O)oc1ccc(O)cc21	-11	-10%	-18	-2.9%	2.0	11%	-7%
COC(=O)C1=C(C)NC2=C(C(=O)CCC2)C1c1ccsc1 (stereo not given)	1	/	/	/	-0.3	10%	/
CC(C)(C)C(=O)NNC(=O)c1ccc(Oc2cc(Cl)cc(Cl)c2)o1	?	-7%	0	-2.0%	1.9	9%	10%[15.4 µM]
O=C(c1ccco1)N(c1ccccn1)c1ccccn1	-2	9%	-7	1.3%	2.4	-6%	11%
CN(C)S(=O)(=O)N1CCN(S(=O)(=O)N2CCOCC2)CC1	-3	-2%	-6	/	5.0	24%	15%[15.4 µM]
C/C(=C\c1ccco1)C1Nc2cccc3cccc(c23)N1	-12	/	/	/	?	-18%	/
COCCCNC(=O)C1CCC(=O)N(c2ccc3c(c2)OCO3)C1c1ccc(OC)cc1 (stereo not given)	-8	6%	-6	-0.6%	-0.8	14%	-3%
Cc1ccc(C(=O)NCC(=O)N2CCN(c3ccccc3)CC2)cc1	0	1%	1	0.3%	1.6	6%	-10%
O=C(Cc1ccc(NC2=NC3CS(=O)(=O)CC3S2)cc1)NCc1ccccc1Cl (stereo not given)	-12	3%	-5	1.2%	-0.7	22%	26%
Cc1ccc(C(=O)N2CCCC(CCC(=O)N3CCN(c4ccccn4)CC3)C2)cc1 (stereo not given)	7	-2%	-7	3.2%	3.0	9%	15%
CCC1CCCCN1CCCNC(=O)CN1C(=O)c2cccnc2Oc2ccc(C)cc21 (stereo not given)	4	12%	-18	1.3%&0.8%	-2.0	14%	-4%
O=C(NCc1cccs1)C1CCCN1C(=O)Nc1cccc(F)c1 (stereo not given)	3	11%	-4	/	2.1	11%	-39%[inhibitor]
COc1cccc(-c2nc(CS(=O)(=O)CC(=O)NC3CCC(C)CC3)c(C)o2)c1 (stereo not given)	-12	-31%	-14	-13%	-2.6	17%	-4%
CC(=O)Nc1cccc(NC(=O)CSc2ccc3nnc(CCNC(=O)c4ccccc4)n3n2)c1	-10	10%	-4	0.6%	0.2	-9%	?
CCOC(=O)c1ccccc1NC(=O)c1cn(-c2ccc(C)c(C)c2)c(=O)c2ccccc12	9	-15%	-9	13µM*	4.7	-3%	1%
Cc1cc(NS(=O)(=O)c2ccc(NC(=O)C(C)Oc3ccc4c(C)cc(=O)oc4c3)cc2)no1 (stereo not given)	4	-1%	9	25µM*	0.7	29%	-26%
COc1c2c(c3c(c1OC)c(=O)c1ccccc1n3C)OCO2	/	3%	29	-1.5%	/	/	-29%
COC(=O)Cc1ccc(O)c(N)c1	-14	-7%	12	/	2.1	-8%	-1%[15.4 µM]
CC(=O)C1=C(C)NC(=O)NC1c1ccc(OC2CCCC2)cc1 (stereo not given)	-3	-6%	-2	0.7%	1.0	-9%	-5%
Cc1ccc(NC(=O)CSC2=Nc3ccccc3C3CC=NN23)c(C)c1 (stereo not given)	-8	4%	-9	-18%	3.4	?	32%
CC(C)c1ccc(CNc2ccc(N3CCOCC3)cc2)cc1	?	-17%	28	-20%	-0.8	45µM*	17%
Cn1ncc(N=Cc2ccccc2)c1C(=O)Nc1cccc(Cl)c1	-8	4%	-12	-1.3%	-0.3	-28%	0%
O=C(COc1ccc2c(c1)OCO2)Nc1nccs1	13	3%	-5	/	3.0	16%	17%[15.4 µM]
O=C(c1cccnc1)n1nc(-c2ccco2)nc1NCc1cccs1	5	0%	-1	3.1%	6.6	?	4%
COc1cc(NC(=O)c2ccc(CNc3c(N4CCOCC4)c(=O)c3=O)cc2)cc(OC)c1	6	-7%	1	2.4%	0.3	17%	-27%
CC(C)c1ccc(NC(=O)[C@H]2CSCN2C(=O)[C@@H]2CCC(=O)N2)cc1	-7	10%	-27	-2.9%	-1.6	1%	16%
O=C(CSc1nc(C(F)(F)F)cc(=O)[nH]1)N1CCCCCC1	-9	0%	0	1.6%	/	/	-10%

Some entries already given, limited to gsp agonist and Menin-MLL FL inh:
canonical_smiles | gsp agonist | Menin-MLL FL inh
O=C(c1cccnc1)n1nc(-c2ccco2)nc1NCc1cccs1 | 4% | 6.6
COc1cc(NC(=O)c2ccc(CNc3c(N4CCOCC4)c(=O)c3=O)cc2)cc(OC)c1 | -27% | 0.3

Further records
SMILES	TRPV1 potentiator	gsp antagonist	D2 PAM	ClpP mod	Menin-MLL FL inh	Sfp inh	gsp agonist
O=C(NCCCNC(=O)c1ccccn1)c1ccccn1	11	-7%	1	0.2%	1.2	-8%	-21%
CCNC(C(=O)c1c[nH]c2c(CC)cccc12)c1ccccc1 (stereo not given)	-4	/	-6	/	-3.8	-7%	-14%[15.4 µM]
Cc1cc(F)ccc1NC(=O)c1cc(S(=O)(=O)N2CCCC2)cn1C	-22	-1%	-2	1.2%	-2.9	6%	-22%
O=C(NC1CCN(Cc2ccccc2)CC1)C1CCN(S(=O)(=O)c2cccc3cccnc23)CC1	12	-5%	-7	-2.6%	-4.4	?	26%
Cc1nc(NC(C)C)c2cnn(CCc3ccccc3)c2n1	10	16%	-2	0.5%	-3.1	14%	25%
CCSc1nnc(Cc2cc(=O)[nH]c(=O)[nH]2)n1-c1cccc(C)c1	0	10%	-7	-0.2%	-6.4	2%	?
CCCCCc1cc(=O)c2ccccc2o1	/	?	-3	0.0%	/	/	5%
Cc1ccc(NC(=O)COC(=O)COc2ccc(Cl)cc2C)c([N+](=O)[O-])c1	8	18%	-10	1.3%	4.3	0%	0%
O=c1[nH][nH]c(=S)n1-c1ccccc1C(F)(F)F	11	/	/	/	7.6	7.9µM*	/
O=C(NCc1ccc(OC(F)(F)F)cc1)c1cccc2c1C(=O)c1ccc(N3CCCCC3)cc1S2(=O)=O	/	0%	-1	1.7%	/	/	/
COc1cccc(-c2nc(CSCC(=O)N3CCc4ccccc43)c(C)o2)c1	-9	-23%	11	-9.7%	-2.0	?	14%
